RecA splice inh: Mtb RecA intein splicing inhibition | cell-free RecA intein splicing, fluorescence | inhibition, %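 (about 9 µM by stock and volumes)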 | hit rate 0.75% among 290,000; in the data active = inhibition above about 30%; inconclusive = no clear call, values can overlap the other calls;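 note: 0% = vehicle wells and 100% = reference inhibitor control wells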
Target sequence (P9WHJ3 whole entry, looked up, canonical isoform): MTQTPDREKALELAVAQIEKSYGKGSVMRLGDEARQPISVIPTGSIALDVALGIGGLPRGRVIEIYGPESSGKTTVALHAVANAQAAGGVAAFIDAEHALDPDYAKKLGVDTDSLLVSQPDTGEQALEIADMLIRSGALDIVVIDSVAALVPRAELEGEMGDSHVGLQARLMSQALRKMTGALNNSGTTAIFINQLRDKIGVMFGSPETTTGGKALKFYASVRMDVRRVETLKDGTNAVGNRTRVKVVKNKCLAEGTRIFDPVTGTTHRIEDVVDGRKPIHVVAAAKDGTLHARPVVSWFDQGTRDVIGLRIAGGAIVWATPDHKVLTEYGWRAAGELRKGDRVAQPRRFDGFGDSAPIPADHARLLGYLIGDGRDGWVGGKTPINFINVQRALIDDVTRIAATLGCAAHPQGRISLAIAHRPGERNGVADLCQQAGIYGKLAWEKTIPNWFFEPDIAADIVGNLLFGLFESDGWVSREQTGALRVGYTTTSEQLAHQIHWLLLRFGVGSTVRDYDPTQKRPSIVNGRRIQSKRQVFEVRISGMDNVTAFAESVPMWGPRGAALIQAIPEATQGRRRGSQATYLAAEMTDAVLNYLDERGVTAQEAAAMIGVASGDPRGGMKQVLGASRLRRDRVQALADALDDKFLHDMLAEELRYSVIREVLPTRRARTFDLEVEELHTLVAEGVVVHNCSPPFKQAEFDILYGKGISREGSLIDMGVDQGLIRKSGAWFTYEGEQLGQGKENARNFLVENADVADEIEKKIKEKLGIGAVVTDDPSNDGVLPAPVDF
Arbovirus anti: blocks arbovirus infection. arbovirus infection cell-based antiviral screen. inhibition, % at 10 µM. hit rate 0.37% among 200,000;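 active = inhibition from about 30%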;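 note: bluetongue infection of BSR cells; cell survival read as ATP light after 72 h; 0% = infected wells without compound and 100% = uninfected wells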
Mtb betalactam: beta-lactam sensitization of Mtb H37Rv; M. tuberculosis H37Rv growth with meropenem, percent inhibition; hits of this screen are not shown here; hit rate 0.27% among 330,000; inhibition, % at 25 µM;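 active = about 74% or more and at least 40 points above the plate without the antibiotic, then above 30% in a dose series; inconclusive = first-round hits that could not be retested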;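 note: growth measured after seven days incubation then overnight dye step; 0% = bacteria only wells and 100% = bacteria with antibiotic; twin plates without the antibiotic show which effects depend on it; some results filed as inactive read as strong as hits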
Mtb H37Rv: M. tuberculosis H37Rv growth inhibitors, H37Rv strain (AID 1626); M. tuberculosis H37Rv growth inhibition; higher % means a stronger effect; inhibition, % at 10 µM, or IC50 in µM where a hit was titrated; hit rate 0.95% among 220,000;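 active = confirmed in a dose series; inconclusive = inhibition above 80% but not taken into the dose series; inactive = below 80% or under 30% at every dose of the series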;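 note: bacteria incubated seven days before Alamar blue readout; 0% = bacteria only wells and 100% = bacteria with antibiotic wells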
YopH inh: YopH (Yersinia) phosphatase inhibition; fluorescence Ex485/Em525; hit rate 0.16% among 140,000; inhibition, %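 (about 10 µM by stock and volumes)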;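 active = inhibition of 50% or more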;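 note: controls were vehicle for no effect and minimum signal wells for full effect; inactives centre near -20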
Arbovirus anti repeat: recorded beside Arbovirus anti, whose call it bears; inhibition, %; measured here: 10K subset replicate screen; many hits read low in the repeat;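 first of two repeat runs on a subset; 0% = infected and 100% = uninfected wells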
The depositor's hits bear a star; ? = inconclusive; . = not tested or not shown. Not all compounds are listed, so the mix of outcomes need not match the whole.

Preview (3 entries):
SMILES	RecA splice inh	Arbovirus anti	Mtb betalactam	Mtb H37Rv	YopH inh	others
CCOC(=O)C1=C(c2ccccc2)NC(SCC(=O)NC2CCCCC2)=C(C#N)C1c1ccco1 (stereo not drawn)	0.1	-3	-5	0%	-32
COc1ccc(CNC(=O)CN(C)S(=O)(=O)c2ccccc2)cc1	1.7	-1	3	2%	.
CNC(=S)Nc1ccc([N+](=O)[O-])cc1C	0.4	0	3	2%	.

All compounds of this part, from the first entry:
SMILES	RecA splice inh	Arbovirus anti	Mtb betalactam	Mtb H37Rv	YopH inh	others
CCOC(=O)C1=C(c2ccccc2)NC(SCC(=O)NC2CCCCC2)=C(C#N)C1c1ccco1 (stereo not drawn)	0.1	-3	-5	0%	-32
COc1ccc(CNC(=O)CN(C)S(=O)(=O)c2ccccc2)cc1	1.7	-1	3	2%	.
CNC(=S)Nc1ccc([N+](=O)[O-])cc1C	0.4	0	3	2%	.
O=S(=O)(O)CCN1CCOCC1	-7.2	-6	3	0%	-11
Cc1c(C(=O)c2ccc(F)cc2)c2ccccn2c1CCc1ccccn1	-3.4	9	2	4%	.
Cc1ccnc(Sc2ccc([N+](=O)[O-])cc2[N+](=O)[O-])n1	22	-32	98	7%	-17
COc1ccc(OCC(=O)Nc2ccc3c(c2)nc(CCN2CCC(C)CC2)n3C)cc1	-1.3	.	3	.	.
O=C(O)c1cc([N+](=O)[O-])ccc1NCc1ccccc1	0.4	8	-4	2%	.
CCOc1ccc(-n2c(SCC(=O)OC)nc3sc4c(c3c2=O)CCN(C)C4)cc1	19	.	0	.	.
O=C(O)CCCNC(=O)/C(=C\c1ccccc1F)NC(=O)c1ccccc1	1.7	-4	-2	5%	.
C/C(=N\NC(N)=O)c1c(O)n(C)c(=O)n(C)c1=O	-2.2	7	4	3%	.
O=C1NN=C(c2ccccc2)CC1c1ccc(Cl)cc1Cl (stereo not drawn)	-0.7	3	1	1%	.
CCN(CC(=O)Nc1ccc(S(=O)(=O)N2CCCC2)cc1)CC(=O)Nc1cccc(OC)c1	-0.4	.	-5	0%	.
O=C(O)c1cc2c(N3CCC(Cc4ccccc4)CC3)ncnc2s1	1.0	-1	-7	1%	.
CCN(c1ccccc1)S(=O)(=O)c1ccc(C(=O)N(CCN(C)C)c2nc3c(F)cc(F)cc3s2)cc1	4.8	.	-1	.	.
COCC(=O)N1CCC(n2nnc3cc(C(F)(F)F)ccc32)CC1	2.6	2	0	-6%	.
O=C(NC1CCCCCC1)c1ccc(CS(=O)Cc2ccccc2Cl)o1 (stereo not drawn)	0.7	.	-10	.	.
O=C(CCC(=O)N1CCSc2ccccc21)NCCc1ccccc1	1.6	.	-11	.	.
O=C(COC(=O)c1cccs1)c1ccc2c(c1)OCCO2	-1.3	4	-9	8.7µM*	-2
CC(C)C[C@H](NC(=O)c1nc[nH]c1C(=O)N1CCN(c2ccccc2)CC1)C(=O)OCc1ccccc1	6.7	.	100	3%	.
O=C1CC(N2CCCN(C3CC(=O)N(c4ccc(F)cc4)C3=O)CC2)C(=O)N1c1ccc(F)cc1 (stereo not drawn)	2.7	0	-1	0%	7
Cc1ccc(S(=O)(=O)N2CCCCC2C(=O)O)cc1 (stereo not drawn)	5.0	3	-1	-5%	.
Cc1ccccc1OCC(O)Cn1c(N2CCCCC2)nc2c1c(=O)[nH]c(=O)n2C (stereo not drawn)	1.1	.	9	.	.
COc1ccc(/C=N\Nc2ncc(F)c(N3CCOCC3)n2)cc1OC	-2.8	.	-6	-9%	.
CC(C)(C)c1cc(S(=O)(=O)CCc2ccccn2)cc(C(C)(C)C)c1F	2.0	-13	8	7%	-13
CC(C)(C)c1ccc(C(=O)NCc2nnc(SCC(=O)NCc3ccco3)o2)cc1	4.8	.	?	.	.
CC(=O)c1ccc(OCc2cc(C(=O)N3CC[C@@H]4CCCC[C@H]4C3)no2)cc1	2.6	.	41	.	.
CCn1nc(C)c(CCC(=O)O)c1C	-0.1	7	0	0%	.
CS(=O)(=O)N(CC(=O)NCc1ccco1)c1ccc(Cl)cc1Cl	3.0	17	-2	-1%	.
CO/N=C1\CCCc2c(C(=O)NN)sc(SC)c21	0.8	.	-4	-5%	.
CC1CCN(Cc2ccc(-c3nnn(CC(=O)NC4CCCCC4)n3)cc2)CC1	2.3	-9	7	-10%	.
COc1cnn(-c2ccccc2)c(=O)c1SCc1ccc(Cl)c(Cl)c1	9.9	6	-5	2%	-41
Cc1nc(SCC(=O)Nc2c(C)n(C)n(-c3ccccc3)c2=O)[nH]c(=O)c1Cc1ccccc1	-1.9	10	5	-2%	-46
Cn1ncc2c(NCc3cccc(C(F)(F)F)c3)c(C(=O)O)cnc21	0.1	13	4	-2%	.
N#Cc1c(-c2ccc(Cl)cc2)c(C#N)c(=O)n(N)c1N	3.2	7	0	5%	-30
CC(=O)Nc1cccc(OCc2ccc(S(=O)(=O)Cc3ccccc3)cc2)c1	-3.2	11	-6	3%	-26
Fc1ccc(Cc2nnc(-c3cccs3)o2)cc1	0.0	-4	2	7%	-24	Arbovirus anti repeat=-2
O=C(O)c1c(C(=O)O)c(-c2ccc(Cl)c(Cl)c2)n2c1CSC2	-0.7	.	-1	.	.
O=C(Nc1ccccc1[N+](=O)[O-])c1cccc(N2C(=O)CCC2=O)c1	-0.2	.	-5	.	.
Nc1ccccc1C(=O)N=Nc1[nH]c(N)c2ccccc12	1.3	-1	-1	-3%	-12
O=C(COC(=O)Cc1cn2ccsc2n1)NC12CC3CC(CC(C3)C1)C2	0.1	3	-8	-8%	-28
CN(C)S(=O)(=O)c1ccc(Cl)c(NC(=O)CN2CCNC(=O)C2)c1	-1.9	4	-6	-2%	.
COc1ccccc1C(=O)NC(=S)Nc1ccc(Cc2ccncc2)cc1	9.5	.	-7	.	.
Cc1cc(C)cc(N(C(=O)CNC(=O)c2ccco2)C(C(=O)NC2CCCCC2)c2ccncc2)c1 (stereo not drawn)	0.4	.	6	.	.
O=C(NC(=S)Nc1ccc(S(=O)(=O)Nc2nccs2)cc1)c1ccc(Br)o1	.	8	6	-7%	.
O=C(CCC1CCCCC1)NCc1ccncc1	4.6	6	-7	-4%	-33
CCCNC(=O)c1nnsc1Sc1ccc(Cl)cc1	1.0	13	-2	19%	.
CCOC(=O)c1c(N)sc(C(=O)Nc2ccccc2)c1C	.	-25	2	2%	.
O=C(COC(=O)C1c2ccccc2Oc2ccccc21)Nc1ccc2c(c1)OCO2	7.7	-3	6	4%	-9
O=C1CSC(c2ccncc2)N1Cc1ccc(F)cc1 (stereo not drawn)	.	.	2	-1%	.
Clc1ccc(-c2nc3ncccn3c2Cl)cc1	-1.3	1	9	0%	.
COC(=O)c1ccc(CSc2nnc(CNC(=O)c3ccc(OC)cc3)o2)o1	-0.3	-1	10	-4%	-39
COc1ccc(CC(=O)NC(=S)Nc2ccc(S(N)(=O)=O)cc2)cc1	-1.8	-2	2	4%	-16
CC1CCC(C(=O)NC(C(=O)N2CCC3(CC2)OCCO3)C(C)C)CC1 (stereo not drawn)	-2.0	0	-7	-2%	9
CC(=O)c1cccc(NC(=O)CCn2c(=S)oc3ccccc32)c1	4.5	.	-3	.	.
CC(=O)c1cccc(NC(=O)N[C@@H](CC(C)C)C(=O)O)c1	0.1	5	-14	1%	-36
CCN1CCN(/C=N/c2nc(C)cs2)CC1	0.5	9	6	0%	-39
CN1CCN(c2ccc([N+](=O)[O-])cc2NC(=O)c2ccccc2)CC1	-2.0	13	-1	-3%	-40
CCOc1ccc(C2NC(=O)CCC2[N+](=O)[O-])cc1 (stereo not drawn)	-2.6	.	-8	.	.
CCOC(=O)c1sc(=S)n2c1[nH]c(=O)c1ccc(C(=O)OC)cc12	-1.1	32*	60	-4%	-7

The list goes on.
SMILES	RecA splice inh	Arbovirus anti	Mtb betalactam	Mtb H37Rv	YopH inh	others
COc1cc(-c2nc3cccc(C)n3c2NCC2CCCO2)ccc1O (stereo not drawn)	-82	-7	2	-6%	.
O=Cc1ccc2ccc3cccnc3c2n1	-6.1	.	99	.	.
Cc1ccc(-c2nc3sc4c(c3c(=O)n2N)CC(C)(C)OC4)cc1	1.6	-2	5	-12%	-20
COc1ccnc(CS(=O)c2nc3cc(OC(F)F)ccc3[nH]2)c1OC (stereo not drawn)	-1.8	.	97	-3%	.
CCc1ccc(Nc2nc(C)cc(C)n2)cc1	0.9	.	7	.	.
N=C1/C(=C/c2cccn2-c2cccc([N+](=O)[O-])c2)C(=O)N=C2SC=CN12	-1.0	-19	2	-11%	-31
O=C(NNC(=O)c1ccc(Cl)cc1Cl)c1csc(-c2cccnc2)n1	0.6	.	-5	-11%	.
CC1=NN(c2ccccc2)C(=O)/C1=C/c1c(O)[nH]c(=O)[nH]c1=O	43*	10	8	-2%	.
Cc1ccc(N=C(c2cccs2)N2CCOCC2)cc1	1.9	-15	-6	15%	-38
COc1ccc(-c2cc3nc4c(c(=O)n3[nH]2)CCC4)cc1	-1.2	-5	-3	-12%	15
C(/C=C/C=C/Nc1ccccc1)=Nc1ccccc1	-0.7	1	4	2%	-1
CCOC(=O)c1c(C)nc(-c2ccccc2)nc1NC(=O)CC	-0.6	3	-9	10%	-23
Cc1cccc(NC(=O)c2ccc([N+](=O)[O-])o2)n1	-5.5	-15	100	3%	0
Nc1nc(NCc2ccco2)nc(N2CCCCC2)c1[N+](=O)[O-]	0.5	-3	1	8%	-19
COc1ccc(S(=O)(=O)N2CCCCC2)cc1NC(=O)CCc1nc2ccccc2c(=O)[nH]1	3.0	.	-4	.	.
O=C(c1ccco1)N1CCN(Cc2cc(=O)c(OCc3ccccc3Cl)co2)CC1	-2.2	.	-9	.	.
Cc1cccc(C)c1NC(=O)Nc1ccccc1-n1ccnc1	0.6	0	3	3%	.
COC(=O)c1ccc(C)c(NS(=O)(=O)c2ccc(C)c([N+](=O)[O-])c2)c1	3.2	-19	-11	2%	-40
Cc1ccc(C2=NN(C3=NN=C(N)Cc4ncnn43)C(O)(C(F)(F)F)C2)cc1 (stereo not drawn)	-1.2	-3	3	-4%	.
Cc1cc(C)cc(NC(=O)CSc2nnc(-c3cc(C)[nH]n3)n2N)c1	-0.8	.	3	.	.
NC(=S)NNc1cccc2cccnc12	28	-29	8	-10%	.
Cn1c(SCc2cccc(Cl)c2)nc(C(F)(F)F)cc1=O	.	12	6	5%	-2
COc1ccc(-c2noc(CCC(=O)NCC3CCCO3)n2)cc1 (stereo not drawn)	-2.4	.	-9	5%	.
Cc1ccc(S(=O)(=O)NCCC(=O)OCc2ccc([N+](=O)[O-])cc2)cc1C	3.6	.	-4	.	.

A draw from above in order of heavy-atom count, descending.
SMILES	RecA splice inh	Arbovirus anti	Mtb betalactam	Mtb H37Rv	YopH inh	others
O=C(c1ccco1)N1CCN(Cc2cc(=O)c(OCc3ccccc3Cl)co2)CC1	-2.2	.	-9	.	.
Cc1ccc(C2=NN(C3=NN=C(N)Cc4ncnn43)C(O)(C(F)(F)F)C2)cc1 (stereo not drawn)	-1.2	-3	3	-4%	.
Cc1ccc(S(=O)(=O)NCCC(=O)OCc2ccc([N+](=O)[O-])cc2)cc1C	3.6	.	-4	.	.
COC(=O)c1ccc(C)c(NS(=O)(=O)c2ccc(C)c([N+](=O)[O-])c2)c1	3.2	-19	-11	2%	-40
Nc1nc(NCc2ccco2)nc(N2CCCCC2)c1[N+](=O)[O-]	0.5	-3	1	8%	-19
Cc1cccc(NC(=O)c2ccc([N+](=O)[O-])o2)n1	-5.5	-15	100	3%	0

Remaining list, next part
SMILES	RecA splice inh	Arbovirus anti	Mtb betalactam	Mtb H37Rv	YopH inh	others
CC(=O)OCC[n+]1c(C)n(-c2ccccc2)c2ccc(Cl)cc21	-0.5	0	2	-1%	.
O=C(Nc1ccc2oc(-c3ccccc3F)nc2c1)c1ccco1	-0.1	0	13	3%	.
Cc1nn2c(-c3ccc(Cl)cc3)ccnc2c1-c1ccccc1	.	5	.	-12%	-8
CCOC(=O)C1(CC2CC2)CCN(Cc2cc(Cl)c(O)c(OC)c2)CC1	-0.5	5	12	-6%	.
Cc1ccc(NC(=O)CN2C(=O)NC3(CCCC3)C2=O)c(Cl)c1	-0.3	.	-2	.	.
CCOc1cc(/C=N/O)ccc1OCc1ccc(F)cc1	-2.6	3	-4	7%	-19
O=C(CSc1nc2cc(C(F)(F)F)ccc2n1Cc1ccccc1)NC1CCS(=O)(=O)C1 (stereo not drawn)	-2.1	1	1	4%	-6

Compound activity as filed in PubChem.
